Compound activity: PubChem, National Center for Advancing Translational Sciences (NCATS)
VACV mCherry inh – vaccinia inhibition (mCherry reporter). Vaccinia virus mCherry reporter infection, fluorescence; about a quarter of the inactives have no number. hit rate 0.63% among 310,000. AID 720579. Potency, µM (highest dose often 36.5 µM), without a hit: at the highest dose activity change, negative = inhibition, usual class: inhibitors; active = well fitted inhibition curve with a large enough effect; inconclusive = small, poorly fitted or top-dose-only effect; inactive = no such curve, though single readings can be large or run the other way; tested in A549 cells; also: nearly all actives have a fitted effect of over 35% in size; inactives centre near -10
VACV Venus inh – inhibitors of vaccinia virus (Venus reporter) | Vaccinia virus Venus reporter expression, fluorescence | Potency, µM (highest dose often 36.5 µM), for the others: at the top dose activity change, negative = inhibition, usual class: inhibitors | hit rate 0.46% among 330,000 | AID 720580; active means well fitted inhibition curve with a large enough effect; inconclusive means small, poorly fitted or top-dose-only effect; inactive means no such curve, though single readings can be large or run the other way; tested in A549 cells; also: nearly all actives have a fitted effect of over 30% in size; inactives centre near -10
Numbers without * were called inactive; i = inactive; ? = inconclusive; . = not tested or not shown; & = joins results of further samples; [ ] = dose if it differs, or a comment. % is scaled to controls: 0 for no effect and ±100 for the full control effect; potency is read from the fitted curve at half-maximal effect.

Value order – VACV mCherry inh, VACV Venus inh
Cn1c(=O)c2c(nc(SCCCC#N)n2Cc2c(F)cccc2Cl)n(C)c1=O
  -10%, -20%
COc1ccc(N)cc1NC(=O)CN1CCCC1
  -8%, -3%
OCCN(Cc1ccccc1)Cc1ccc(C(F)(F)F)cc1
  ., -21%
CN(CC1CCCCO1)C(=O)c1cc(COc2ccc(F)cc2Cl)on1 (configuration not stated)
  -7%, -15%
Cc1ccc2oc(-c3cc(NC(=O)c4oc5ccccc5c4C)ccc3Cl)nc2c1
  6%, -3%
Cn1nnnc1SCC(=O)Nc1ccc(Oc2ccc(Cl)cc2)cc1
  -1%, -23%
Cc1ccc(CC(=O)NC2CCCc3ccccc32)cc1C (configuration not stated)
  5%, -11%
COc1ccc(N2C(=O)NC(NC(=O)c3ccncc3)(C(F)(F)F)C2=O)cc1 (configuration not stated)
  -11%, -4%
COc1cccc(C(c2nnnn2CC2CCCO2)N2CCN(C(=O)c3ccco3)CC2)c1OC (configuration not stated)
  -11%, -4%
O=[N+]([O-])c1ccccc1N/N=C1\CC2CC=CC12 (configuration not stated)
  i, -3%
COc1ccc(C(=O)Nc2cc(OC)ccc2OC)cc1
  -21%[1.46 µM], -7%
CCOC(=O)c1cnc2ccccc2c1Nc1ccc2c(c1)OCCO2
  i, -13%
CC(=O)Nc1ccc(OCc2ccccc2)cc1[N+](=O)[O-]
  i, -6%
CCOc1ccc(NS(=O)(=O)c2ccc3c(c2)CCCN3C(=O)C2CCC2)cc1
  -11%, -22%
CCn1c(C)cs/c1=N\S(=O)(=O)c1ccccc1
  i, -7%
CS(=O)(=O)N(CC(=O)NCCSc1ccccn1)c1cccc2ccccc12
  -7%, 1%
C[C@@H](C(=O)CC(=O)OC(C)(C)C)[C@@H](O)c1ccccc1
  -2%, -1%
Cc1cc(=O)oc2cc(OCC(=O)Nc3cccnc3)ccc12
  i, 0%
CCCN1C2=NCCN2c2ccccc21
  ., 4%
Cc1cc(S(=O)(=O)NC(=O)[C@H]2O[C@@H](n3cnc4c(N)ncnc43)[C@H](O)[C@@H]2O)ccc1Br
  32%[activator], 5%
COc1cccc2c1OCC([C@@H]1C[C@H]3CN(Cc4cccc(Cl)c4)C(=O)[C@]34CCCN14)=C2
  -26%, -17%
CC(NC(=O)c1ccccc1)C(=O)N/N=C/c1ccco1 (configuration not stated)
  0%, 14%
CC1(C(=O)NCc2ccc3c(c2)OCO3)CCN1C(=O)C1(c2ccc(Cl)cc2)CC1 (configuration not stated)
  25%, -18%
O=c1[nH]cnc2nc3n(c12)CCCCC3
  ., 8%
CCCCn1c(=O)c(C(=O)NC(C)c2ccccc2)c(O)c2ccccc21 (configuration not stated)
  ?, -7%
CC(=O)c1c(C)[nH]c(C(=O)COc2ccc(C#N)cc2)c1C
  ., ?
O=C(Nc1ccccc1)c1cccc(C(F)(F)F)c1
  4%, -11%
CCOc1ccc(CCNC(=O)COC(=O)C2=NNC(=O)CC2)cc1OCC
  -1%, -17%
O=C(c1ccc(Cl)c(S(=O)(=O)N2CCCCC2)c1)N1CCCC1
  -9%, -8%
Cc1ccc(N(Cc2cc3ccccc3[nH]c2=O)C(=O)c2cccs2)cc1C
  -13%, -20%

Profiles from above. Screens in order: VACV mCherry inh	VACV Venus inh
Entry for `O=C(c1ccc(Cl)c(S(=O)(=O)N2CCCCC2)c1)N1CCCC1` = -9%	-8%
Entry for `CCOc1ccc(CCNC(=O)COC(=O)C2=NNC(=O)CC2)cc1OCC` = -1%	-17%

As entered above.
VACV Venus inh, `CS(=O)(=O)N(CC(=O)NCCSc1ccccn1)c1cccc2ccccc12` stands at 1%
VACV mCherry inh, `CC(NC(=O)c1ccccc1)C(=O)N/N=C/c1ccco1` (configuration not stated) stands at 0%
VACV Venus inh, `CCCN1C2=NCCN2c2ccccc21` stands at 4%
VACV Venus inh, `O=C(Nc1ccccc1)c1cccc(C(F)(F)F)c1` stands at -11%

Carrying on.
Value order – VACV mCherry inh, VACV Venus inh
Cc1ccc(-c2nc3ccccn3c2Nc2ccccc2)o1
  0%, -19%
COc1cc2ccc(-c3ccc4ccccc4n3)cc2cc1OC
  i, -7%
COC/C=C/C1=CC2=CC(=O)C(C)(OC(=O)C3CCCC3)C(=O)C2=CO1 (configuration not stated)
  -13%, 0%
COc1ccc(OCCCC(=O)Nc2ncn[nH]2)cc1
  i, 1%
CCN(CC)S(=O)(=O)c1cc(-c2nnc(-c3ccc(Br)cc3)o2)ccc1Cl
  ., -11%
CC1CCCN1CC#CC(O)(c1ccccc1)c1ccccc1 (configuration not stated)
  i, -9%
CCOC(=O)c1cnc2ccc(Br)cc2c1NCC(C)O (configuration not stated)
  ., -9%
CCOC(=O)c1cccc(P(=O)(C(C)(C)C)C(C)(C)C)c1
  i, -7%
O=c1c2ccccc2nc(SCc2nnc(-c3ccccc3Br)o2)n1Cc1ccco1
  -14%, -15%
CCSc1oc(-c2cccs2)nc1S(=O)(=O)c1ccccc1
  ?, -18%
CCN=c1scc(-c2ccco2)n1/N=C/c1ccc(OC)c(O)c1
  -10%, -19%
c1ccc(CC(Cc2ccccc2)c2ccccn2)cc1
  -21%, -4%
COc1ccc(N(CC(=O)NCCSCc2cccc(Cl)c2)S(C)(=O)=O)cc1
  -24%, -10%
O=c1c2c(O)cc(O)cc2oc2ccc(O)c(O[C@@H]3O[C@H](CO)[C@@H](O)[C@H](O)[C@H]3O[C@H]3O[C@H](CO)[C@@H](O)[C@H](O)[C@H]3O)c12
  2%, 2%
Cc1nc2nc(C(F)(F)F)[nH]n2c(=O)c1Cc1ccccc1
  -11%, 1%
CCOC(=O)[C@]12CCC=C1N(Cc1ccc(Cl)cc1Cl)C(=O)[C@H](CC(=O)NCC13CC4CC(CC(C4)C1)C3)C2
  1%, -6%
CCn1c(O)c(/C=C2\C=Nc3ccccc32)sc1=Nc1ccc(C)cc1
  -18%, -13%
COc1ccccc1-c1sc2cc3c(cc2c1C#Cc1ccccn1)OCO3
  0%, -17%
O=C(CCn1cnc2ccccc2c1=O)Nc1ccc(S(=O)(=O)N2CCCC2)cc1
  ., -18%
CCc1ccc(CN2CCC(n3nccc3NC(=O)c3ccccc3)CC2)o1
  i[7.34 µM], 0%[7.34 µM]
Cc1cccc(CC(=O)Nc2ccc(C(=O)N3CCCCC3)cc2)c1
  -23%, -27%
CCc1cccc(C)c1NC(=O)COC(=O)c1cc([N+](=O)[O-])ccc1N1CCOCC1
  -16%, 3%
Cc1c(C(=O)O)sc(=S)n1-c1ccc(Cl)cc1
  -5%, 1%
CCOc1ccc(NC(=O)NC(CC)Cn2nnc3ccccc3c2=O)cc1 (configuration not stated)
  -11%, -6%
COc1cccc(-c2cnc3c(NC(C)=O)cc(-c4ccc(S(C)(=O)=O)cc4)cn23)c1
  -15%, -16%
CCN(CC)c1ccc(CNCc2cccs2)cc1
  -16%, -13%
Cc1nnc(N2CCCC(C(=O)NCCc3ccccc3)C2)c2nn(-c3ccccc3)c(C)c12 (configuration not stated)
  -11%, -17%
CCc1ccc(CN(Cc2ccco2)C(=O)c2ccc(OC)cc2)cc1
  -6%, -5%
Cc1cc(NC2CCCCC2)nc(-c2ccccc2O)n1
  ., -23%
CSC1=NCCN1C(=O)Cc1ccc(-c2ccccc2)cc1
  -16%, -19%
Cc1ccc(-c2nnc(SCCC(=O)Nc3ccccc3)n2C)cc1
  -10%, -19%
CC(C(=O)Nc1ccc2c(c1)OCCO2)N(C)CC(=O)Nc1ccccc1Br (configuration not stated)
  -19%, -13%
CCN(CC)C(=O)Cn1cc(C(=O)C(=O)N2CCN(c3ccccc3)CC2)c2ccccc21
  -4%, -10%
CCNc1nc(Oc2ccc(C(=O)OC)cc2)nc(N(C)C)n1
  ., -4%
O=C(NC1CCCN(Cc2ccc(Cl)cc2)C1)c1cccc(N2CCCC2=O)c1 (configuration not stated)
  -7%, -20%
CCOC(=O)CC1C(=O)NCCN1C(=O)c1ccc(Cl)cc1 (configuration not stated)
  -23%, -11%
Cc1onc(-c2ccccc2)c1C(=O)N1CCN(c2ccccc2)CC1
  -21%, -11%
CCOC(=O)CSc1nnnn1-c1cccc2ccccc12
  ?, -10%
CC(=O)c1cnc(SCC(=O)O)nc1C
  3%, 11%
CN(C)c1nc2n(c(=S)n1)CCS2
  2%, 5%
O=C(/C(N=Nc1cccc(C(F)(F)F)c1)=C(/O)c1cccs1)C(F)(F)F
  -21%, ?
O=C(Nc1ccccc1)c1ccc2c(c1)OCCCO2
  -14%, -18%
COc1cc(NC(=O)CCN2CCN(c3ccccc3OC)CC2)cc(OC)c1
  -1%, -10%
COc1cccc(C(=O)NNC(=O)C2CCCO2)c1 (configuration not stated)
  -7%, -3%
COc1ccc(C(=O)CSc2nnnn2C)c(OC)c1
  i, -7%
O=C(CCc1nc2ccccc2[nH]c1=O)OCC(=O)c1ccc(Cl)cc1
  -11%, 0%
O=C1CC(c2ccc(F)cc2)Cc2nc(N3CCOCC3)ncc21 (configuration not stated)
  ., ?
Cc1cccc2sc(N(CCCN(C)C)C(=O)COc3ccccc3)nc12
  -10%, -12%
CCNc1nc(NC(C)C)nc(N2CC(=O)N(CC(=O)OCC)C2=N)n1
  -16%, -14%
COc1cc(C#Cc2c(C=O)n(C)c3ccccc23)cc(OC)c1
  -27%, ?
Cc1ccc(-c2noc(CCC(=O)Nc3ccc(F)cc3Cl)n2)cc1
  -11%[7.34 µM], -8%[7.34 µM]
COc1ccc(C(c2nnnn2Cc2cccs2)N2CCN(c3ccccc3F)CC2)cc1OC (configuration not stated)
  ?, -26%
CN(CCCN1CCOCC1)C(=O)c1ccc2nc(Cc3cccc(Cl)c3)oc2c1
  -18%, -22%
Cc1ccc(N/C=C(/C#N)c2ccsc2)cc1C
  -7%, -17%
CC1CCC(NC(=O)c2ccc3c(c2)N(Cc2ccccc2)C(=O)c2ccccc2S3=O)CC1 (configuration not stated)
  -15%, -13%
CCNC(=O)CN1C(=O)NC2(CCCc3cc(OC)ccc32)C1=O (configuration not stated)
  ., -14%
C=CC[C@@H](CC(=O)N(CCO)Cc1ccccc1)C(=O)N[C@H](COC(=O)[C@@H](CC=C)Cc1ccc(F)cc1)Cc1c[nH]c2ccccc12
  ?, ?
O=C(c1ccccc1)N1CCN(c2ccc([N+](=O)[O-])c(N3CCOCC3)c2)CC1
  i, -25%
Nc1nonc1-c1nc2ccccc2n1Cc1cccc(Cl)c1
  -12%, -23%
Cc1c(C)c(C)c(CN2CCCC2)c(C)c1C
  i, -8%

New compounds follow.
Value order – VACV mCherry inh, VACV Venus inh
O=C(COC(=O)/C=C/c1cccc(C(F)(F)F)c1)NC(=O)NCc1ccco1
  -14%, -15%
CCOC(=O)c1cnc2c(C)c(C)ccc2c1NCCN1CCOCC1
  -27%, -26%
CCC(C(=O)OCC(=O)Nc1ccc(F)cc1)c1ccccc1 (configuration not stated)
  1%, -15%
COc1ccc(S(=O)(=O)NCC2CCCO2)c(Cl)c1Cl (configuration not stated)
  -25%, -6%
CCOc1ccc(CC2(CCc3ccncc3)C(=O)NC(=O)NC2=O)cc1
  -3%, -8%
COc1ccc(C(O)c2nc(-c3ccc(OC)c(OC)c3)cs2)cc1 (configuration not stated)
  16%, 6%
Cc1cccc(N2C(=O)C3CCC(c4ccccc4)CC3C2=O)c1 (configuration not stated)
  -7%, -7%
CNc1nc(OCC(F)(F)F)nc(N2CCOCC2)n1
  -10%, -5%
CCOc1ccc(CCNC(=O)CN2C(=O)NC(CCSC)C2=O)cc1OCC (configuration not stated)
  0%, 0%
COCCn1nc2cc(C(=O)NCc3cc(C(F)(F)F)cc(C(F)(F)F)c3)ccc2c1OC
  -10%, -17%
COc1ccccc1C(=O)NC(=O)COC(=O)c1nc2nc(C)cc(C)n2n1
  i, 2%
COc1ccc(OC)c(C2CC(=O)C(C)C(c3cc(OC)ccc3OC)N2)c1 (configuration not stated)
  ., -11%
COc1ccc(N2CC(NC(=O)C3CC3)CC2=O)cc1 (configuration not stated)
  -10%[7.34 µM], -5%[7.34 µM]
COc1ccc(-c2cc(-c3ccccc3)no2)cc1
  -19%, -9%
N#Cc1cc([N+](=O)[O-])ccc1NCCCn1ccnc1
  -8%, -15%
C/C(=N\NC(=O)c1ccco1)c1ccc(-c2ccccc2)cc1
  -7%, 16%
CCc1nnc(NC(=O)c2ccc(S(=O)(=O)NCC(C)C)cc2)s1
  -14%, -7%
CC(=O)N1N=C(c2ccccc2)CC1c1cn(Cc2ccccc2)c2ccccc12 (configuration not stated)
  ?, ?
CN1CCCN(C(=O)Cc2c(Cl)cccc2Cl)c2nc3ccccc3nc21
  ?, ?
COc1ccc(-c2nn(C)c3sc(C(=O)NCCN(C)C)cc23)cc1OC
  ?, -28%&-3%
O=C(c1cccc(C(F)(F)F)c1)C1CCCN(C(=O)CCCn2cncn2)C1 (configuration not stated)
  i, 0%
COc1ccccc1-n1c(N)c(C(=O)NCC2CCCO2)c2nc3ccccc3nc21 (configuration not stated)
  i, -14%

Retrieved one by one from the list above, 3 records:
Value order – VACV mCherry inh, VACV Venus inh
COc1ccccc1-n1c(N)c(C(=O)NCC2CCCO2)c2nc3ccccc3nc21 (configuration not stated)
  i, -14%
CCc1nnc(NC(=O)c2ccc(S(=O)(=O)NCC(C)C)cc2)s1
  -14%, -7%
CN1CCCN(C(=O)Cc2c(Cl)cccc2Cl)c2nc3ccccc3nc21
  ?, ?
